Tgondii IFNg: inhibitors of Toxoplasma gondii growth with IFN-gamma | Toxoplasma gondii growth in IFN-gamma-treated host cells; active compounds read low; reference of the scale not given here | activity change, negative = inhibition, %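 (about 20 µM by stock and volumes)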 | hit rate 3.8% among 69,000 | AID 1259416;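 active = below -70%; inconclusive = fit judged invalid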;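 note: host cells are HeLa cells infected with Toxoplasma gondii; parasite growth read as luciferase light; one replicate is shown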
Numbers without * were called inactive; i = inactive; ? = inconclusive. These rows are one share of the data (hit frequency here may not be typical).

SMILES	Tgondii IFNg
Cc1nc(-c2ccc(F)cc2)sc1CCNC(=O)C(=O)Nc1cc(F)ccc1F	21
CCS(=O)(=O)Nc1cc(OC)c(OC)cc1Cc1nccc2cc(OC)c(OC)cc12	12
Cc1cnc(N2CCC3(c4ccccc4)CN(S(C)(=O)=O)CC3C2)nc1 (stereo not given)	i
CN(C)CCn1nc(-c2cccc(-n3cccc3)c2)oc1=O	-13
CC(C)CCN1C[C@H]2[C@H](C(=O)N(C)Cc3ccccn3)CCS(=O)(=O)[C@H]2C1	54
COC(=O)[C@@H]1C[C@@H](N(C)C)CN1S(=O)(=O)c1ccccc1OC	-13
C[C@H](CO)N1C[C@H](C)[C@@H](CN(C)Cc2ccc(C(F)(F)F)cc2)Oc2c(NC(=O)NC3CCCCC3)cccc2C1=O	-53
Cc1nc2nc[nH]n2c(=O)c1NS(C)(=O)=O	-37
Cc1[nH]n(C(N)=S)c(=O)c1N=Nc1cc(-c2ccc(Br)cc2)[nH]n1	178
COc1cccc(-c2ccc([C@@H]3[C@@H](C#N)N(C(=O)Cc4ccncc4)[C@@H]3CO)cc2)c1	-24
CCOc1ccc(-c2nc(CN(C)S(=O)(=O)c3cc(C)ccc3C)c(C)o2)cc1	-37
COC(=O)CNC(=O)N1CCCCC1c1cccc(F)c1 (stereo not given)	-3
CN1C(=O)CCc2cc(C(=O)N3CCCCC3)ccc21	24
CCn1c(C)nc2cc(S(=O)(=O)N(C)C)ccc21	-7
COC(=O)c1c(C)nc2n(Cc3ccccc3)c3ccccc3n12	-84*
CCN(CC)C(=S)Oc1c(Br)cc(Br)cc1Br	-61
COc1ccc2c3c(n(C)c2c1)[C@@H](CO)N(C(=O)Nc1ccc(F)cc1)CC31CCN(C(=O)Nc2c(C)noc2C)CC1	36
c1ccc(-c2nsc(NC3Cc4ccccc4C3)n2)cc1	365
CCCCCC/C=C\CCCCCCCc1cccc(O)c1C(=O)O	9
COC(=O)c1cc(C2CC2)nc2c1c(=O)n(Cc1nc(-c3ccccc3)oc1C)c(=O)n2C	-55
C[C@H](CO)N1C[C@H](C)[C@@H](CN(C)C(=O)NC2CCCCC2)Oc2c(NC(=O)c3cnccn3)cccc2C1=O	6
c1ccc(-c2ccc(-c3cn4c(-c5ccoc5)c(-c5ccoc5)nnc4n3)cc2)cc1	-7
CCc1cn[nH]c1-c1c(F)cccc1F	7
COc1ccc(-n2ccnc2-c2cccc(C(C)N(C)C)c2)cn1 (stereo not given)	-8
CS(=O)(=O)c1cccnc1C1CCN(C(=O)Cc2ccc3c(c2)OCO3)CC1	-27

4 of these compounds, reformatted:
mol,Tgondii IFNg
CCn1c(C)nc2cc(S(=O)(=O)N(C)C)ccc21,-7
CCc1cn[nH]c1-c1c(F)cccc1F,7
COc1cccc(-c2ccc([C@@H]3[C@@H](C#N)N(C(=O)Cc4ccncc4)[C@@H]3CO)cc2)c1,-24
CS(=O)(=O)c1cccnc1C1CCN(C(=O)Cc2ccc3c(c2)OCO3)CC1,-27

Continued.
SMILES	Tgondii IFNg
CCN1c2ccc(F)cc2C(=O)NC12CCN(C(=O)Cc1ccccc1Cl)CC2	4
COc1ccccc1S(=O)(=O)N(C)C[C@H]1OCc2cn(nn2)CCCC(=O)N([C@@H](C)CO)C[C@H]1C	-42
O=C(c1ccccc1-c1ncc[nH]1)N1C[C@H]2CC=CC[C@H]2C1	-4
CCn1ccnc1-c1c(-c2ccccc2)ncn1CCN1CCOC1=O	4
CCOC(=O)COc1nc(-c2ccccc2)cc(C(F)(F)F)c1C#N	-8
O=C(COc1ccc2c(c1)OCO2)N1CCCC(c2ccn[nH]2)C1 (stereo not given)	10
CN1Cc2ccccc2CC2(CCN(C(=O)c3cccn3C)CC2)C1=O	0
Cc1[nH]c2ccccc2c1Cc1n[nH]c(=S)n1C	16
Cc1ccc2c(c1C)-n1cccc1C1(CCN(C(=O)c3cccs3)CC1)N2	23
CCOC(=O)c1c(F)c(F)c(S(C)(=O)=O)c(F)c1F	0
C[C@@H]1CN([C@H](C)CO)C(=O)c2cc(NS(=O)(=O)c3cccs3)ccc2O[C@@H](C)CCCCO[C@H]1CN(C)Cc1ccc(Cl)c(Cl)c1	-67
CCN(CC)c1nc(-c2ccc(OC)cc2)nc2ccccc12	-54
O=C(Cn1ncc2c(N3CCN(c4ccccn4)CC3)ncnc21)Nc1ccc(F)c(Cl)c1	184
CCCCN1CCC(O)(c2cnc(OC)nc2OC)CC1	-22
CCc1cc(-n2cnc3c(C)ncnc32)ccc1NC(C)=O	0
CCO[C@H]1COC[C@@H]1NC(=O)Cc1nc(C)sc1C	-29
Cc1cnc(C)c(N2CCN(Cc3c(CO)cnc(C)c3O)CC2)n1	-4
Cc1cc(N)n2c(nc3ccccc32)c1C#N	116
O=S(=O)(NCc1ccccc1)Nc1ccccc1OCC1CCCO1 (stereo not given)	2
COc1ncc(-c2cc(Cl)ccc2OC)c(OC)n1	1
CC(C)CC(=O)N1C[C@H]2OCCN(c3ncc(F)cn3)[C@H]2C1	-38
CCn1c(SCc2nc(-c3ccc(C)cc3)oc2C)nc2c(=O)[nH]cnc21	24
Cc1nc(CCNC(=O)c2cnn(Cc3ccccc3)c2)nc2c1CCC2	-51
CSc1ccc(C(=O)C2CCCN(S(=O)(=O)c3ccccc3)C2)cc1 (stereo not given)	-30
C[C@@H]1CN([C@@H](C)CO)C(=O)CCCn2nncc2CO[C@H]1CN(C)Cc1ccc(C(=O)Nc2ccccc2N)cc1	27

The list goes on:
SMILES	Tgondii IFNg
COc1ccc(CN2CCC3(CCCN3CC3CC3)CC2)cc1	-10
CCN(C/C=C/c1ccccc1)C(=O)c1c(C)nn(CC)c1C	10
COc1ccccc1-n1cc(C(=O)N(C)Cc2csc(C)n2)cn1	188
C#Cc1cccc(C(=O)N(C)CCOc2ccccc2CC)c1	-24
CN(CCCc1nccn1C)Cc1cc2n(n1)CCCNC2	7
Fc1ccc(-c2ncnc3c2CCN(c2ncccn2)CC3)cc1	-51
O=C(NCc1cccc(F)c1)[C@H]1[C@H](CO)[C@H]2Cn3c(ccc(-c4ccncc4)c3=O)[C@@H]1N2CC1CC1	-3
O=S(=O)(CCS(=O)(=O)c1ccccn1)c1ccc(Cl)cc1	29
c1c[nH]c(CN2CCN(CCn3cncn3)CC2)n1	-3
CC(=O)N1CCC2(CC1)OC(=O)C(C)=C2C(=O)NCCC1=CCCCC1	42
CN(C)C(=O)CN1[C@@H]2CCN(c3ncccn3)CC[C@@H]2Oc2ccccc2S1(=O)=O	5
Cc1ccccc1-c1nnc(-c2ccco2)o1	25
CN(Cc1ncc[nH]1)C(=O)COc1ccc2c(c1)OCO2	-5
CC(c1cccs1)N(C)C(=O)c1coc(COc2ccc3c(c2)OCO3)n1 (stereo not given)	69
CN(C)CCNC(=O)C1CN(Cc2ccncc2)Cc2ccnn2C1 (stereo not given)	-3
O=C(Cn1c(=O)cc(-c2nc(C3CC3)no2)c2ccccc21)NC1CCCC1	14
COc1ccc2c3c(n(C)c2c1)[C@@H](CO)N(C(=O)C1CCCC1)CC31CN(C(=O)CC2CC2)C1	66
CC1CCCN(CCCNC(=O)CN2C(=O)CCc3cc(S(=O)(=O)N4CCCCC4)ccc32)C1 (stereo not given)	10
CC(=O)NCC(=O)Nc1ccc(Cl)c(C(=O)OC(C)C)c1	8
C[C@H](CO)N1C[C@H](C)[C@@H](CN(C)Cc2ccc(-c3ccccc3)cc2)Oc2ccc(N(C)C)cc2CC1=O	27
C[C@@H]1CN([C@H](C)CO)C(=O)c2c(c3ccccc3n2C)-c2ccccc2CO[C@@H]1CN(C)C(=O)NC1CCCCC1	-27
CC1=C(C(=O)Nc2ccc(C)c(Cl)c2)C2(CCN(S(C)(=O)=O)CC2)OC1=O	3
Cc1ccc(C2c3[nH]c4ccccc4c3CCN2C(=O)c2ccc(N(C)C)cc2)cc1 (stereo not given)	-119*
CCn1c(CC2CCNCC2)nn(Cc2nc(COC)no2)c1=O	1
COc1ccc(NC(=O)c2ccc(C(=N)N(C)C)cc2)c(C(=O)Nc2ccc(Cl)cn2)c1	-4

The list goes on, overlapping the part above by two compounds.
SMILES	Tgondii IFNg
CCn1c(CC2CCNCC2)nn(Cc2nc(COC)no2)c1=O	1
COc1ccc(NC(=O)c2ccc(C(=N)N(C)C)cc2)c(C(=O)Nc2ccc(Cl)cn2)c1	-4
CCc1ccc(CN(C)Cc2nc(Cc3ccccc3)no2)nc1	-1
CN(C)CCN1CCc2ncc(Cn3cncn3)n2CC1	-15
C(#Cc1ccccc1)CN(Cc1nc(-c2ccco2)no1)C1CC1	-2
Cc1cc(-n2c(=O)[nH]c(=O)n(C)c2=O)ccc1Oc1ccc(SC(F)(F)F)cc1	?
CC(Oc1cccc(F)c1)C(=O)NC(c1ccncc1)c1cccs1 (stereo not given)	-9
COC(=O)C1CCCCN1Cc1ccc2c(c1)CN(C(=O)CSc1nnc(C)s1)CCO2 (stereo not given)	-9
CCc1ccc(-c2c(-c3ccccc3)ncn2CCc2nn[nH]n2)nc1	9
CCC(=O)Nc1ccc2c(c1)OC[C@H](C)N(Cc1ccccc1)C[C@@H](C)[C@H](OC)CN(C)C2=O	42
COCCO[C@@H]1CCN(c2cc(OC)ncn2)[C@H]1Cc1cnn(C)c1	27
COc1ccc(-c2cc3c(=O)n(Cc4nc(-c5cccc(Cl)c5)oc4C)ccn3n2)cc1OC	14
Cc1nc(-c2cnn3c(C)cc(C(F)(F)F)nc23)no1	42
CCOc1ccc(-c2nc(CSc3nc4c(=O)[nH]cnc4n3C)c(C)o2)cc1	-13
COc1ccc(S(=O)(=O)CCNC(=O)c2nc3ccccc3n(C)c2=O)cc1	7
Cc1cc(C(=O)N2CCCC(O)(CO)CC2)c2cc(Cl)ccc2n1 (stereo not given)	5
CC(C)[C@@H]1C(=O)NCCC=CC[C@@H](C)Oc2ccccc2C(=O)N1C (mixture of isomers)	20
CCO[C@H]1CN(S(=O)(=O)c2cn(C)cn2)[C@H]2COC[C@@H]12	11
Cc1ccccc1-n1c(N)cc(=O)n(Cc2ccccc2)c1=O	-6
CCCNC(=O)N1[C@@H](CO)[C@H](c2ccccc2)C12CN(C(=O)C1CCCCC1)C2	-34
Cc1nnc(-c2ccc3ccn(CC(=O)Nc4cccc(CN5CCCC5)c4)c3c2)o1	-40
Cc1cccc(OC(C(=O)N2CC(c3cccnc3)C2)C(C)C)c1 (stereo not given)	-11
Cc1cccc(-c2ccc3nc(C4CCN(CC5CC5)CC4)nn3c2)c1	-51
CC(C)CC#Cc1ccc([C@H]2[C@H](CO)N3C(=O)CN(C(=O)Nc4cc(F)ccc4F)C[C@@H]23)cc1	-15
CN(Cc1coc2ccccc2c1=O)CC1CC(=O)N(C2CCCC2)C1 (stereo not given)	-15
CC1(COc2ccccc2)NCCc2[nH]cnc21 (stereo not given)	-43
COC(=O)c1cn(C[C@H]2CCCN(C(=O)OC(C)(C)C)C2)nn1	3

Quoted from the listing.
For Tgondii IFNg, C(#Cc1ccccc1)CN(Cc1nc(-c2ccco2)no1)C1CC1 reads -2
For Tgondii IFNg, CN(C)CCN1CCc2ncc(Cn3cncn3)n2CC1 reads -15
For Tgondii IFNg, CCCNC(=O)N1[C@@H](CO)[C@H](c2ccccc2)C12CN(C(=O)C1CCCCC1)C2 reads -34
For Tgondii IFNg, COC(=O)C1CCCCN1Cc1ccc2c(c1)CN(C(=O)CSc1nnc(C)s1)CCO2 (stereo not given) reads -9
For Tgondii IFNg, Cc1cccc(-c2ccc3nc(C4CCN(CC5CC5)CC4)nn3c2)c1 reads -51
For Tgondii IFNg, COC(=O)c1cn(C[C@H]2CCCN(C(=O)OC(C)(C)C)C2)nn1 reads 3

Next section
SMILES	Tgondii IFNg
O=C(C[C@H]1CC[C@H](NC(=O)c2ccc3c(c2)OCO3)[C@@H](CO)O1)NCc1ccc(Oc2ccccc2)cc1	25
O=C(c1ccc(-n2nc(C(F)(F)F)c3c2CCCC3)cc1)N1CCC2(CC1)OCCO2	-51
O=C(Nc1ccc2c(c1)OCO2)C1CCCN(c2ncccn2)C1 (stereo not given)	196
CN(Cc1ccc(Oc2ccccc2)cc1)Cc1cc2n(n1)CCNC2	-26
CCOc1ccccc1NS(=O)(=O)c1cccs1	3
CNC[C@@H]1OCCCC[C@H](C)Oc2ccc(NC(=O)Nc3ccc(OC)cc3)cc2C(=O)N([C@@H](C)CO)C[C@@H]1C	0
CC(=O)N1CCN(Cc2nc3c(C)c(C)ccc3[nH]2)CC1	-8
Cc1cc(C)n(C(=O)c2cc3sccc3[nH]2)n1	6
Cc1ccc(CN2CCC3(CC2)CC(OCC2CC2)CO3)s1 (stereo not given)	-12
NS(=O)(=O)c1ccc(CCn2ccnc2-c2ccc3occc3c2)cc1	-2
c1ccc2c(c1)CCC(N1CCN(Cc3cc4n(n3)CCCNC4)CC1)C2 (stereo not given)	4
CN(C)Cc1cccc(N=C(c2ccccc2)c2c(O)[nH]c3cc(C(N)=O)ccc23)c1	-70
Cn1cc(CN2CCC3(c4ccccc4)CN(S(C)(=O)=O)CC3C2)cn1 (stereo not given)	7
CCS(=O)(=O)N[C@@H]1CC[C@@H](CC(=O)NCc2ccc(Cl)cc2)O[C@@H]1CO	-47
COCCN1Cc2ccccc2C2(CCN(C(=O)c3cnc[nH]3)CC2)C1	25
O=c1[nH]nc2c3c(cccc13)NC(CN1Cc3ccccc3C1)=N2	14
Cc1c(C(=O)CSc2nc3ccccc3c(=O)[nH]2)c2ccccc2n1C	8
Cc1nc(CN2CCc3ccc(=O)[nH]c3CC2)cs1	14
CN(C)C(=O)N1CCOCC2(C1)CN(c1cnn(C)c1)C(=O)CO2 (stereo not given)	9
Cc1cccc(-c2nc(C)c(CCNC(=O)C(=O)Nc3cc(C)ccc3C)s2)c1	-12

Shown field by field: entries from further up
CN(C)C(=O)N1CCOCC2(C1)CN(c1cnn(C)c1)C(=O)CO2 (stereo not given)
  Tgondii IFNg = 9
O=C(c1ccc(-n2nc(C(F)(F)F)c3c2CCCC3)cc1)N1CCC2(CC1)OCCO2
  Tgondii IFNg = -51
NS(=O)(=O)c1ccc(CCn2ccnc2-c2ccc3occc3c2)cc1
  Tgondii IFNg = -2
Cc1c(C(=O)CSc2nc3ccccc3c(=O)[nH]2)c2ccccc2n1C
  Tgondii IFNg = 8

Bioassay records as filed in PubChem BioAssay.
